Assay outcomes: PubChem BioAssay, ICCB-Longwood Screening Facility, Harvard Medical School
MgrA-DNA mod = modulators of Staphylococcus aureus MgrA DNA binding | 0.13% of 84,000 active | fluorescence polarization | inhibition, %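 (about 10 µg/mL by stock and volumes)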;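 active = above 50% in either of two replicates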;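 also: 0% = protein plus DNA without compound and 100% = DNA alone without protein; higher means less MgrA bound to DNA so lower polarization; one replicate is shown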
S aureus helic = S. aureus DNA helicase inhibition; 0.05% of 120,000 active; purified S. aureus helicase, fluorescence unwinding assay; about half of the hits fall short of the stated cut; inhibition, %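 (tested at about 80 µM)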;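 active = both duplicates at 50% or more, or one of them with a favoured structure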;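 also: 0% = mean of negative control wells and 100% = mean of positive control wells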
The depositor's hits bear a star; . = no result given. A portion of the library, so the mix of outcomes need not match the whole.

Compound	MgrA-DNA mod	S aureus helic
O=S(=O)(NNc1cnc2ccccc2n1)c1ccccc1C(F)(F)F	.	-7
CCOc1cc(C(=O)Nc2cc(-c3nc4cc(Cl)ccc4o3)ccc2C)cc(OCC)c1OCC	1.2	.
N#Cc1ccc(S(=O)(=O)NC2CCCCNC2=O)cc1 (stereo not drawn)	.	20
COc1ccc(OC)c(-c2cc(C(=O)NCCCn3ccnc3)no2)c1	.	26
CCS(=O)(=O)c1ccc2oc(=S)n(CN(C)C3CCCCC3)c2c1	.	12
O=C(NCC1CCCO1)Nc1c[nH]c2c(Cl)cccc2c1=O (stereo not drawn)	-2.0	1
CCOC(=O)N(c1ccccc1)S(=O)(=O)c1ccc(Cl)cc1	-3.4	6
Cc1ccc(C2=N/C(=C\C(Br)=C\c3ccccc3)C(=O)O2)cc1[N+](=O)[O-]	4.5	.
CS(=O)(=O)N1CCN(c2c(Cl)cncc2Cl)CC1	0.6	.
O=S(=O)(c1ccc(Oc2ccc3ccccc3c2)nc1)N1CCOCC1	.	-4
O=C(NN=C1CCCC1)c1cc(-c2ccccc2)n[nH]1	4.7	0
Cc1ccc(C(=O)NCC2CCCO2)o1 (stereo not drawn)	4.1	2
O=C(O)CSc1ccc2nnc(-c3cccnc3)n2n1	.	0
O=C(Nc1cnn(C23CC4CC(CC(C4)C2)C3)c1)c1cc(-c2ccccc2F)no1	.	4
CC(=O)Nc1c(=O)[nH]n2c(C)cc(C)nc12	4.8	-27
CCNC(=O)C(C)Oc1ccc(Cl)c(C)c1 (stereo not drawn)	-3.6	-3
O=C(OCCN1CCCCC1)c1ccccc1Br	.	13
O=C(CCn1nnc2ccccc21)N1CCC(O)(c2cccc(F)c2)CC1	-2.5	6
Cc1cccc(-c2n[nH]c(=S)n2CC(N)=O)c1	.	-12
CCCS(=O)(=O)N1CCn2cccc2C1c1ccc(Cl)cc1Cl (stereo not drawn)	.	10
O=C(Cn1c(C(=O)NCc2ccco2)cc2sccc21)c1ccccc1	1.4	-9
C=CCN1C(=O)CN=C1Nc1ccccc1	1.2	11
Cc1cc(=O)oc2c3c(ccc12)OCN(CCc1ccccc1)C3	.	39
CCOC(=O)CSc1nnc(NC(=O)CC)s1	.	0
Cc1ccc(-c2csc3ncnc(NCCC(=O)O)c23)cc1	-1.0	6
COc1cc(Br)c(C2C(C(=O)OCCOc3ccccc3)=C(C)NC3=C2C(=O)CCC3)cc1OC (stereo not drawn)	-5.6	.
CCOc1ccc(C2CNC(=O)C2)cc1 (stereo not drawn)	3.5	8
O=C(CC1COc2ccccc2O1)Oc1ccccc1 (stereo not drawn)	2.8	-19
CCNC(=O)c1cc2c(=O)n3ccccc3nc2nc1NCCCN1CCOCC1	3.0	5
Cc1ccc(S(=O)(=O)c2ccc(Cl)c(N)c2)cc1	3.0	.
Cn1c(=O)n(C)c2cc(CNc3ccc(N4CCOCC4)c(C(=O)O)c3)ccc21	.	-8
CC(=O)ON1C(c2ccccc2)[N+]([O-])=C(c2ccccc2)C1(C)C (stereo not drawn)	2.2	-1
Clc1ccc(-c2cnc3ccccc3n2)cc1	.	3
N/C(=N\OC(=O)CN1C(=O)c2ccccc2C1=O)c1ccccn1	-0.3	6
O=C(CCCSc1nc2ccccc2s1)N1CCN(c2ncccn2)CC1	.	1
CC(C)N1C(=O)CSC1c1ccccc1 (stereo not drawn)	-0.7	10
CC1CCC(NC(=O)C2c3cccn3CC(=O)N2c2cccc(F)c2)CC1 (stereo not drawn)	.	10
COC(=O)n1c(=O)oc2cc(Cl)ccc21	.	37
CCCOc1ccccc1C1NC(=O)NC(C)=C1C(=O)OCC(F)(F)C(F)(F)F (stereo not drawn)	-0.9	.
CCCN(CCC)CCCn1cnc2c([nH]c3ccc(F)cc32)c1=O	1.2	17
c1ccc2c(c1)NC(c1ccc3c(c1)OCCO3)n1cccc1-2 (stereo not drawn)	.	12
COc1ccccc1OCC(=O)NC1CCCCC1	-0.2	0
Cc1cc(C)n(C(=O)c2cccs2)n1	.	7
C[C@@H]1[C@@H](c2ccc(F)c(Br)c2)N2C=Cc3ccccc3[C@@H]2C1(C#N)C#N	-1.5	4
CC(=O)NCC(c1ccccc1)c1ccccc1	1.1	5
CCCCNc1ncc2cc3ccccc3nc2c1C#N	.	-85
CC(NCCn1cnc2c(N)ncnc21)c1ccccc1 (stereo not drawn)	0.5	.
COc1ccc(-c2cc(-c3nc(-c4cccnc4)no3)[nH]n2)cc1	.	-1
Cc1nc2ccccc2cc1C(N)=O	-1.4	3
CC(C)COc1ccc(C(=O)OCCN2CCOCC2)cc1	.	3

7 compounds already listed, arranged by SMILES length, falling.
Compound	MgrA-DNA mod	S aureus helic
C[C@@H]1[C@@H](c2ccc(F)c(Br)c2)N2C=Cc3ccccc3[C@@H]2C1(C#N)C#N	-1.5	4
COc1cc(Br)c(C2C(C(=O)OCCOc3ccccc3)=C(C)NC3=C2C(=O)CCC3)cc1OC (stereo not drawn)	-5.6	.
CC1CCC(NC(=O)C2c3cccn3CC(=O)N2c2cccc(F)c2)CC1 (stereo not drawn)	.	10
CCCN(CCC)CCCn1cnc2c([nH]c3ccc(F)cc32)c1=O	1.2	17
c1ccc2c(c1)NC(c1ccc3c(c1)OCCO3)n1cccc1-2 (stereo not drawn)	.	12
CC(NCCn1cnc2c(N)ncnc21)c1ccccc1 (stereo not drawn)	0.5	.
Clc1ccc(-c2cnc3ccccc3n2)cc1	.	3

Carrying on:
Compound	MgrA-DNA mod	S aureus helic
COc1ccc(/C=C/C#N)cc1	-2.7	3
COC(=O)C1=C(N)Oc2c(oc(CO)cc2=O)C1c1ccccc1 (stereo not drawn)	0.6	-3
CCOC(=O)c1cc2ccccc2[nH]c1=O	-1.0	3
CCOC(=O)C1CCN(S(=O)(=O)c2cnc[nH]2)CC1	.	8
O=c1c2ccccc2c(=O)c2c1c(NC1CCCCC1)cc1oc3cc(Cl)ccc3[nH]c12	-0.4	.
Cc1nc2ccccc2c2c1C(=O)N(C1CCCCCCC1)C2=O	.	0
Cc1ccc(C(=O)OCC(=O)c2cc(C)n(CC3COc4ccccc4O3)c2C)s1 (stereo not drawn)	.	-17
Cc1ccc2[nH]c(O)c(N=NC(=O)c3cccc(O)c3)c2c1	8.9	7
CN1CCC(NC(=O)CCCc2ccccc2)CC1	-1.8	12
COC(=O)/C=C1/OC(c2ccc(OC)cc2)=CC1=O	-3.0	.
O=c1[nH]n(CC2COC(c3ccccc3)O2)c(=O)c2ccccc12 (stereo not drawn)	-0.9	-1
NCCNC(=O)c1ccc(/C=N/O)nc1	.	-17
Cc1nc2nc3[nH]c4ccccc4c3nn2n1	.	14
CC1CN(C(=O)c2cc(S(=O)(=O)N3CCCC3)ccc2Cl)CC(C)O1 (stereo not drawn)	4.0	11
O=C(c1ccc2c(c1)OCCCO2)N1CCOCC1	-2.3	.
O=C(COC(=O)Cn1cnc2ccccc21)NCc1ccccc1	.	-12
N#CC(Nc1cc(C(F)(F)F)cc(C(F)(F)F)c1)c1ccccc1 (stereo not drawn)	-1.1	.
CN1C(=O)C(Cc2nc3ccccc3c(=O)n2-c2ccccc2)c2cc(Br)ccc21 (stereo not drawn)	.	-14
NS(=O)(=O)c1ccc(NC(=O)CN2C(=O)c3ccccc3C2=O)cc1	0.8	-3
COc1ccc(-c2nc(SCCC(=O)O)n[nH]2)cc1	.	-5
CCOc1cc(C(=O)Nc2c3c(nn2-c2ccc(OC)cc2)CSC3)cc(OCC)c1OCC	-2.8	.
NC(N)=Nc1nc(-c2ccccc2)c2ccccc2n1	0.0	16
Cc1cc(N2CCOCC2)nc([S+]2CCCC2)n1	-1.4	17
COc1cc(C2NC(=O)NC(C)=C2C(=O)OCCc2ccccc2)cc(Br)c1O (stereo not drawn)	2.8	.
O=C(Cc1cccc2ccccc12)Nc1ccc(-n2cnnn2)cc1	.	19

Sorted by the number under S aureus helic (rising): some entries from above.
| Compound | MgrA-DNA mod | S aureus helic |
| --- | --- | --- |
| COc1ccc(/C=C/C#N)cc1 | -2.7 | 3 |
| CCOC(=O)C1CCN(S(=O)(=O)c2cnc[nH]2)CC1 | . | 8 |
| O=C(Cc1cccc2ccccc12)Nc1ccc(-n2cnnn2)cc1 | . | 19 |

(continued)
Compound	MgrA-DNA mod	S aureus helic
CCC(C(=O)N1CCCC1)n1c(C(=O)OC)cc2sccc21 (stereo not drawn)	0.4	12
NC(=O)c1ccccc1CCc1ccccc1	0.3	18
CN(C)S(=O)(=O)Nc1ccc(OCc2ccccc2)cc1	0.2	9
C(=N\n1c(-c2ccco2)csc1=NCCc1ccccc1)/c1ccco1	.	24
Cc1sc2nc3c4ccccc4c(NCCO)nn3c(=O)c2c1C	1.9	4
O=C1NC(c2ccc(Cl)cc2)=COc2ccccc21	-0.9	.
CCCCC(=O)Nc1cc(OC)c(OC)cc1C(=O)O	.	-11
CCOC(=O)c1cc(OC(=O)c2ccc(Cl)nc2)cc(C(=O)OCC)c1	.	5
COC(=O)c1nn(-c2ccccc2)c2oc(=O)cc(C)c12	-1.2	.
COc1ccc(S(=O)(=O)N2CCCCC2)cc1-n1c(N)c(C#N)c2nc3ccccc3nc21	.	-26
COC(=O)CN(c1cccc(C)c1)S(=O)(=O)c1ccccc1	35	5
COC(=O)c1cccc(COC(=O)CCc2nc3ccccc3[nH]c2=O)c1	.	27
CN1C(=O)c2ccccc2C1O (stereo not drawn)	.	-1
O=C(CN1C(=O)c2ccccc2C1=O)Nc1ccc(S(=O)(=O)NC2=NCCCCC2)cc1	.	14
O=C1C2C3C=CC(C2C(=O)N1c1nccs1)C1C(=O)N(c2nccs2)C(=O)C31 (stereo not drawn)	2.7	.
CC1=C(C(=O)O)N2C(=O)[C@@H](NC(=O)[C@H](N)c3ccccc3)[C@H]2SC1	0.7	.
Cc1nnc(SCC(=O)N(CC(C)C)C2CCS(=O)(=O)C2)s1 (stereo not drawn)	.	26*
CCC(C)NC(=O)c1csc2c1CCCCC2 (stereo not drawn)	.	-15
CCN(CC)C(=O)C1C(=O)NC2(C)CC1c1ccccc1O2 (stereo not drawn)	.	7
O=C(c1c(Cl)nc2sccn12)N1CCN(c2cccc(Cl)c2)CC1	.	-13
Cc1ccc(NC(=O)COC(=O)c2cccc(C(F)(F)F)c2)cc1C	-0.3	5
Cc1nnc(Sc2nc3ccc(Cl)cc3s2)n1-c1ccc2c(c1)OCCO2	-0.2	.
COc1ccc(NC(=O)COC(=O)Cc2cccc(C(F)(F)F)c2)cc1	-2.0	0
O=C(/C=C/c1ccc2c(c1)OCO2)NCc1ccccc1	-1.4	-6
COC(=O)c1cc(OC(=O)c2nc(-c3ccccc3)oc2C)cc(C(=O)OC)c1	.	-3

Looked up above:
Cc1ccc(NC(=O)COC(=O)c2cccc(C(F)(F)F)c2)cc1C | S aureus helic: 5
COC(=O)n1c(=O)oc2cc(Cl)ccc21 | S aureus helic: 37
Cc1ccc(C(=O)OCC(=O)c2cc(C)n(CC3COc4ccccc4O3)c2C)s1 (stereo not drawn) | S aureus helic: -17

(continued)
Compound	MgrA-DNA mod	S aureus helic
O=C(c1ccn(C(=O)c2ccc(Cl)cc2Cl)n1)N1CCCCC1	0.5	7
O=C(O)/C(=C\c1ccccc1)c1cccs1	.	9
O=C(Nc1ccccc1)OCC(F)(F)F	0.3	-5
CSc1ccccc1NC(=O)c1noc2c1CC(C(C)(C)C)CC2 (stereo not drawn)	.	-22
OC(c1ccc(-n2ccnc2)cc1)c1ccc(-n2ccnc2)cc1	-1.9	.
Cc1cc(=O)[nH]c(SCc2cc(=O)n3nc(SCC(C)C)sc3n2)n1	.	-6
O=S(=O)(NCc1ccccc1)c1ccc(S(=O)(=O)N2CCCCCC2)cc1	-0.8	-2
CC(C)(C)c1ccc(OCCn2c(=O)oc3ccccc32)cc1	.	13
O=C(CNC(=O)C12CC3CC(CC(C3)C1)C2)N1CCN(S(=O)(=O)c2ccc(Cl)cc2)CC1	.	1
CCCCCC1CC(CC(C)C(=O)Nc2nncs2)C(=O)O1 (stereo not drawn)	2.2	0
CSc1ccc(Cl)c(C(=O)OC(C)C(N)=O)c1 (stereo not drawn)	.	9
CCCCc1ccc2nc(NC(=O)c3ccco3)sc2c1	1.9	-7
Oc1ccccc1CNC1CCCCC1	1.4	12
Cc1oc2ncn(C)c(=O)c2c1C(=O)N1CCc2ccccc21	.	-4
CCN(CC)S(=O)(=O)c1ccc(S(=O)(=O)Nc2cc(Cl)ccc2OC)cc1	.	6
O=C(NC1CCCCC1)N1c2ccccc2CCc2ccccc21	1.4	9
Cc1n[nH]c(=O)c2c(NC(=O)COC(=O)/C=C/c3ccc4c(c3)OCO4)oc(C)c12	.	28
O=C(CC1CC2CCC1C2)NCc1cccs1 (stereo not drawn)	-1.8	12
CCOC(=O)c1c(C)[nH]c(C(=O)O)c1C	-2.6	14
CCOc1ccc(OCC)c(C(=O)C2CCCCC2)c1	-2.0	5
Cc1ccc(N2C(=O)N(CC(=O)N3CCC(C)CC3)C3CS(=O)(=O)CC32)cc1Cl (stereo not drawn)	.	1
CCOC(=O)C1CCN(c2ncnc3scc(C)c23)CC1	-3.1	.
O=C(O)c1ccccc1C(=O)NC1=NN(c2ccccc2)CC1	-3.1	6
Cc1nc2ccccc2nc1C(N)=O	.	25
Cc1ccc(C)c(N2CCN(S(=O)(=O)c3ccc4c(c3)OCCO4)CC2)c1	0.0	6
COCCN1C(=O)c2ccccc2C(C(=O)NCc2ccccn2)C1c1ccc(F)cc1 (stereo not drawn)	.	13
CN(C)Cc1nc2c(c(=O)[nH]1)C(C)(C)Cc1ccccc1-2	0.5	22
CC1(C)CC(=O)CC(=Nc2ccc3[nH]c(=O)[nH]c3c2)C1	-1.2	-5
